CSC inhib: blocks cancer stem cells | cancer stem cell-like cells viability, luminescence | inhibition, % at 7.5 µM | 1.1% of 300,000 active | AID 2717;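 active = mean at 75% or more and at least half the replicates too; tested in HMLE shEcad cells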;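 note: 0% = median of negative and 100% = median of positive control wells; the first replicate is given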
PABP FP inh: blocks human PABP binding to poly(A) RNA | P11940 | fluorescence polarization | inhibition, % at 35 µM | 1% of 290,000 active | AID 2014;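 active = 50% or more with normal probe brightness, or confirmed in later tests; about a fifth of its hits are not listed in these tables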;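 note: calls also rest on retests at 20 µM and on dose response follow-up; controls were probe without protein and protein plus probe with vehicle; some compounds called inactive have numbers as strong as hits; many hits fall short of the cut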
Rce1 inh: inhibitors of yeast Ras-converting enzyme | Q03530 | yeast membranes, quenched prenylated peptide cleavage fluorescence | calls only | 0.27% of 290,000 active | AID 2563;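 active = fall in fluorescence gain of 50% or more versus controls, with final raw signal at or below 3038400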;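 note: plate controls were neutral control wells for no effect and wells lacking membranes for full effect; tested at 10 µM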
Target sequence (Q03530 whole entry, looked up): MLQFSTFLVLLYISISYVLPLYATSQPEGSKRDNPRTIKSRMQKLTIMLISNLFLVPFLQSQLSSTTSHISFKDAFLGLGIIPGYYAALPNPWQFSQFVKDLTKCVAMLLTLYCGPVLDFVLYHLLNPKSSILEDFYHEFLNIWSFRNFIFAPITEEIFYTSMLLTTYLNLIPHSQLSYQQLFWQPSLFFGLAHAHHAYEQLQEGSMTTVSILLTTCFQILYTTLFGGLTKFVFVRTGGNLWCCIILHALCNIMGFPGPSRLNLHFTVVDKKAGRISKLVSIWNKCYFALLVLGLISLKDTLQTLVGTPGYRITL
UUG fidelity: modulators of start codon recognition fidelity in yeast; S. cerevisiae UUG-firefly luciferase reporter, luminescence/redox ratio; activity score, % at 18.7 µM; 0.13% of 350,000 active; AID 602363;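 active = replicate mean at a twofold rise or more, about +100% in these data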;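 note: firefly luciferase made from a UUG start codon reports start codon fidelity; reporter light over untreated wells divided by growth signal over untreated wells; some hits fall short of that in this replicate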
HIV Env fusion: HIV envelope-mediated fusion inhibition | HeLa-JRFL Env/CEM21 cell fusion, luciferase | inhibition, % at 12.3 µM | 1.1% of 360,000 active;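 active = mean replicate inhibition score of at least 50 and every replicate individually at or above 50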;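 note: 0% = plate neutral controls and 100% = maraviroc near 300 nM; one replicate is shown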
eIF4H FP inh: inhibitors of RNA binding by human eIF4H; Q15056; 0.94% of 290,000 active; inhibition, % at 35 µM; eIF4H fluorescence polarization binding assay;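 active = 50% or more with normal probe brightness, or confirmed in later tests; about a fifth of its hits are not listed in these tables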;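 note: calls also rest on retests at 20 µM and on dose response follow-up; 0% = protein and probe with vehicle and 100% = probe without protein; strong numbers were not always called active; many hits fall short of the cut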
MT1-MMP act inh: inhibitors of human MT1-MMP activation | AID 651647 | 0.061% of 360,000 active | HT1080 RFP-PRO-GFP cells, GFP/RFP ratio fluorescence, overnight; percent of plate control window, DMSO zero | GFP/RFP ratio change, % at 20 µM;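 active = GFP/RFP ratio change of at least 30% with cell ATP level not reduced by more than half and red fluorescence within 50% of control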; note: strong numbers were not always called active
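Assay system: HT1080 RFP-PRO-GFP cells | Dosing: 20 µM single dose, 1% DMSO | Incubation: Cells overnight before dosing, compound overnight, 37 °C, 5% CO2 | Evaluation: GFP/RFP fluorescence ratio | Control set: DMSO-only wells and HT1080 RFP-L50D-GFP cell wells as references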
eIF4H FP inh retest: second read-out of eIF4H FP inh, no call of its own (marks repeat the call); inhibition, %; compound at 20 µM; confirmation average;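 mean of two retest wells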
PABP FP inh retest: second read-out of PABP FP inh, no call of its own (marks repeat the call); inhibition, %; compound at 20 µM; confirmation repeats;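 mean of two retest wells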
MT1-MMP act inh RFP: recorded beside MT1-MMP act inh, whose call it bears; RFP signal change, %; measured here: RFP expression control read;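 0 = vehicle wells; hits needed this value within 50% of zero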
The depositor's hits bear a star; i = inactive; nt = not tested or not shown. This is a random part of the collection (roughly 2.9% active in at least one column).

SMILES | CSC inhib | PABP FP inh | Rce1 inh | UUG fidelity | HIV Env fusion | eIF4H FP inh | MT1-MMP act inh | MT1-MMP act inh RFP | others
COC(=O)c1cc(NC(=O)C(C)c2ccc(CC(C)C)cc2)ccc1O (stereo unspecified) | -2 | -8 | nt | nt | 27 | -10 | 3 | -11
COc1cc(CCC(=O)Nc2nnc(C)s2)cc(OC)c1OC | 53 | 2 | i | -14 | -19 | 0 | -5 | -10
Cc1nc2ccccc2n1C1CC(=O)N(N(C)C)C1=O (stereo unspecified) | 2 | 4 | i | nt | nt | -6 | 7 | 5
CCOC(=O)C1CCN(C(c2cccc(F)c2)c2sc3nc(C)nn3c2O)CC1 (stereo unspecified) | -4 | 13 | i | -6 | -3 | 5 | 3 | 0
Cc1cc(C)n2nc(-c3ccc(F)cc3)cc2n1 | nt | nt | nt | -28 | -228 | nt | 0 | 2
C=CC[C@H](CC(=O)NCCO)C(=O)N[C@@H](C)COC(=O)[C@@H](CC=C)CC(=O)OC(C)(C)C | 3 | nt | nt | 10 | -18 | nt | 2 | 1
CC(=O)N1CCOc2ccc(S(=O)(=O)N3CCC(C(=O)Nc4ccc(C)c(C)c4)CC3)cc21 | -13 | 8 | i | 0 | 4 | -6 | -1 | -7
CN(C)CC1CCCCC1OC(=O)c1ccc(Cl)cc1 (stereo unspecified) | nt | -2 | i | nt | -17 | -4 | 2 | 3
CCNc1nc(Cl)nc(N(NC(C)=O)C(C)C)n1 | -12 | 3 | i | nt | 13 | -2 | 2 | 3
COc1cc(CN2CC(=O)N(c3cc(Cl)ccc3C)C2=S)cc(OC)c1OC | 27 | -3 | i | -6 | -10 | -14 | -7 | -3
Cc1ccccc1/C=N/N1C(=O)CSC1=S | -14 | 8 | i | -16 | -20 | 2 | 4 | 8
CSc1nc(C(=O)N2CCCC(N3CCN(c4ccccc4C)CC3)C2)cs1 (stereo unspecified) | 8 | -17 | nt | -3 | 12 | -2 | 1 | -4
O=C(OCc1nnc(-c2ccccc2)o1)c1cc(=O)[nH]c2ccccc12 | 1 | nt | i | -14 | -4 | nt | 2 | 3
Cc1ccccc1C(=O)Nc1nnc(-c2ccco2)s1 | 1 | 16 | i | -20 | 6 | -1 | 3 | 0
COc1ccc(/C=C/C(=O)CC(O)(c2ccccc2)C(F)(F)F)cc1 (stereo unspecified) | 12 | 2 | i | nt | 30 | -3 | -6 | -10
Cc1cc(Cl)c(O)c(-n2nc3ccccc3n2)c1 | 0 | 5 | i | nt | -19 | -1 | -2 | 0
Cc1ccccc1CC1(CO)CCCN(Cc2ccc3c(c2)OCCO3)C1 (stereo unspecified) | 9 | 4 | i | nt | -7 | -4 | 1 | 2
CCN(CC)CCNc1nc(-c2ccco2)c2c(c1C#N)CC(C)(C)OC2 | 9 | -8 | i | -13 | -1 | -5 | -4 | 0
Cc1ccc(CNC(=O)c2nc3nc(C)cc(C)n3n2)cc1 | -19 | 4 | i | nt | nt | 4 | 2 | 9
CCCN(CC#CC(O)(c1ccccc1)c1cccnc1)CCC (stereo unspecified) | 0 | 6 | i | nt | 17 | -2 | 0 | 6
O=C(NNC(=O)c1ccccc1F)c1cccc(Cl)c1 | 3 | -2 | i | -22 | nt | 3 | -2 | 0
O=S(=O)(c1ccccc1F)N1CCc2ccccc2C1 | 12 | 10 | i | -7 | 17 | -1 | -2 | 0
COc1ccc(C)cc1NC(=O)CCCN1C(=O)C2CC=CCC2C1=O (stereo unspecified) | -1 | -12 | i | -11 | -10 | -4 | 0 | 4
Cc1cc(C)cc(NC(=O)c2cnn(-c3ccccc3)c2C2CCNCC2)c1 | -3 | -10 | i | nt | 9 | -2 | -4 | 2
O=C(Nc1nnc(-c2ccco2)o1)c1ccc(N2C(=O)CCC2=O)cc1 | -8 | 6 | i | nt | -7 | 56 | 3 | 3 | eIF4H FP inh retest=7;PABP FP inh retest=-3

Reprinted at random: 6 compounds from above, in no set order.
SMILES | CSC inhib | PABP FP inh | Rce1 inh | UUG fidelity | HIV Env fusion | eIF4H FP inh | MT1-MMP act inh | MT1-MMP act inh RFP | others
COc1cc(CCC(=O)Nc2nnc(C)s2)cc(OC)c1OC | 53 | 2 | i | -14 | -19 | 0 | -5 | -10
Cc1cc(C)cc(NC(=O)c2cnn(-c3ccccc3)c2C2CCNCC2)c1 | -3 | -10 | i | nt | 9 | -2 | -4 | 2
O=C(Nc1nnc(-c2ccco2)o1)c1ccc(N2C(=O)CCC2=O)cc1 | -8 | 6 | i | nt | -7 | 56 | 3 | 3 | eIF4H FP inh retest=7;PABP FP inh retest=-3
COc1cc(CN2CC(=O)N(c3cc(Cl)ccc3C)C2=S)cc(OC)c1OC | 27 | -3 | i | -6 | -10 | -14 | -7 | -3
Cc1cc(C)n2nc(-c3ccc(F)cc3)cc2n1 | nt | nt | nt | -28 | -228 | nt | 0 | 2
CCCN(CC#CC(O)(c1ccccc1)c1cccnc1)CCC (stereo unspecified) | 0 | 6 | i | nt | 17 | -2 | 0 | 6

Next results follow:
SMILES | CSC inhib | PABP FP inh | Rce1 inh | UUG fidelity | HIV Env fusion | eIF4H FP inh | MT1-MMP act inh | MT1-MMP act inh RFP | others
Cc1cccc(CNC(=O)c2sc(=O)n(Cc3c(C)cccc3C)c2C)c1 | nt | nt | nt | -14 | -34 | nt | 7 | -6
CC(C)n1nc(C(=O)Nc2ccccc2N2CCOCC2)c2ccccc2c1=O | -3 | 12 | i | nt | 10 | -4 | -3 | -8
COc1ccc(C)cc1S(=O)(=O)Nc1cccc(Cl)c1Cl | 6 | 9 | nt | 8 | nt | -8 | 0 | -2
Cc1cc(C(=O)NCc2ccc(Cl)cc2)n(-c2ccccc2)n1 | -5 | 3 | i | nt | -18 | -25 | 0 | -2
CCCCNc1cc(F)nc(N)n1 | -10 | -1 | i | nt | -11 | 59 | -2 | 7 | eIF4H FP inh retest=5;PABP FP inh retest=32
Cc1ccc(C(=O)C2=C(O)C(=O)N(c3ncccn3)C2c2ccc(Cl)cc2)o1 (stereo unspecified) | -4 | 11 | i | -20 | nt | 42 | -6 | 2
CC1CCN(c2ccc(N3C(=O)C4CCCCC4C3=O)cc2[N+](=O)[O-])CC1 (stereo unspecified) | 48 | 0 | i | -11 | -4 | 3 | 6 | -4
Cc1nc2ccc(Nc3ccncc3)cc2s1 | -9 | 6 | i | -1 | -2 | -12 | 3 | 0
NC(=O)C1CCN(c2oc(-c3cccs3)nc2S(=O)(=O)c2ccc(Br)cc2)CC1 | -8 | nt | nt | -20 | nt | nt | -2 | -1
CCc1cc(C(=O)Nc2ncccc2O)sc1C | -1 | 4 | i | -58 | 1 | 11 | 4 | 6
O=c1[nH]n(-c2ccc(F)cc2)c2ncccc12 | -7 | 12 | i | -11 | -58 | 2 | 7 | 3
Cc1cc(C(=O)COC(=O)CNC(=O)c2ccc(F)cc2)c(C)n1Cc1ccco1 | -5 | 20 | i | nt | nt | 86 | 2 | 5 | eIF4H FP inh retest=-10;PABP FP inh retest=2
CC(=O)N(c1ccc(N(C(C)=O)S(=O)(=O)c2ccccc2)cc1)S(=O)(=O)c1ccccc1 | 3 | 4 | i | -5 | -26 | 2 | 6 | 5
Cc1nn(Cc2ccccc2)c(C)c1C(=O)OCC(=O)c1cc(C)n(CC(F)(F)F)c1C | 78* | -8 | i | -12 | nt | -12 | -4 | -14
Cc1cccc(NC(=O)CCCN2C(=O)C3CC=CCC3C2=O)c1 (stereo unspecified) | -9 | -3 | i | -1 | -15 | -9 | 2 | 7
Cc1cc(C)nc(Nc2nc(C(N)Cc3ccc(F)cc3)cs2)n1 (stereo unspecified) | nt | nt | nt | -4 | -9 | nt | 3 | -4
Cc1cccc(Nc2cc(C)c3c(O)cccc3n2)c1C | 62 | -7 | i | -20 | -29 | 10 | -9 | -15
CCN(CC(=O)Nc1cc(Cl)ccc1C)C(=O)CCOc1ccc(C)cc1 | -14 | nt | i | 4 | -14 | nt | 0 | -2
COc1ccc(NC(=O)NCCCCc2ccccc2)cc1OC | -22 | -5 | i | -18 | 4 | 5 | 1 | 0
O=C(CCCN1C(=O)c2cccnc2Oc2ccc(Cl)cc21)N1CCCCC1 | -19 | -10 | i | -5 | 8 | -16 | -1 | 0
Cc1ccc(S(=O)(=O)N2CCOCC2)cc1NC(=O)c1cc([N+](=O)[O-])ccc1N1CCOCC1 | -5 | nt | i | nt | 25 | nt | 2 | 4
CCCc1n[nH]c(=O)c2c1nnn2Cc1ccccc1F | 3 | 0 | i | -11 | -9 | 1 | 0 | 3
CCN=C(Nc1ccc2c(c1)OCO2)SC1CC(=O)N(c2ccccc2F)C1=O (stereo unspecified) | -12 | -1 | i | -7 | nt | -4 | -3 | -6
O=C1C=C(c2cccc(Cl)c2)C[C@@H](c2ccc(F)cc2)C1 | 37 | nt | nt | -12 | nt | nt | 4 | 5
Cc1ccccc1C1C(C#N)=C2N=C(N)c3c(sc4c3CCCCC4)N2C2=C1C(=O)CC(C)(C)C2 (stereo unspecified) | 11 | 87 | i | -20 | -9 | 114* | -232 | 3 | eIF4H FP inh retest=73*;PABP FP inh retest=42

The results go on:
SMILES | CSC inhib | PABP FP inh | Rce1 inh | UUG fidelity | HIV Env fusion | eIF4H FP inh | MT1-MMP act inh | MT1-MMP act inh RFP | others
S=C(Nc1ccc(Nc2ccccc2)cc1)N1CCN(c2ncccn2)CC1 | -17 | -6 | i | nt | 4 | -6 | 4 | 4
CC1(OC(=O)C2CCCC2)C(=O)C=C2C=C(c3ccsc3)N(CCN3CCOCC3)C=C2C1=O (stereo unspecified) | nt | 41* | i | nt | nt | 101 | nt | nt | eIF4H FP inh retest=34;PABP FP inh retest=89*
COC(=O)c1ccc(CN2C(=O)NC3(CCC(C)CC3)C2=O)o1 (stereo unspecified) | -14 | 5 | i | -12 | nt | -8 | 2 | 3
Cc1nnc(NCCc2ccccc2)[nH]c1=O | -5 | 6 | i | -23 | -54 | -2 | -1 | 6
Cc1cccc[n+]1CC(=O)Nc1cccc([N+](=O)[O-])c1 | -20 | 3 | i | nt | -2 | -1 | nt | nt
Cc1cccc(C)c1NC(=O)CSc1ncnc2[nH]ncc12 | 6 | nt | nt | nt | 5 | nt | -2 | 2
CCOc1ccc(C2=C(C=Nc3c(C)n(C)n(-c4ccccc4)c3=O)C(c3ccc(F)cc3)c3ccccc3O2)cc1 (stereo unspecified) | 11 | 1 | nt | -16 | nt | -2 | -10 | -7
COc1ccccc1CNC(=O)COC(=O)c1ccc(N2CCCC2=O)cc1 | -11 | nt | nt | 3 | nt | nt | -1 | 5
O=C(c1ccccc1)c1ccc2nc(Nc3ccccc3)c3nncn3c2c1 | 7 | -8 | i | -23 | 14 | -5 | nt | nt
Cc1ccc2nc(-c3ccncc3)cc(C(=O)NCCc3ccc(F)cc3)c2c1 | 4 | 2 | i | nt | -9 | -10 | 4 | -7
CCOc1c2ccc(C(=O)NCCc3ccc(C)cc3)cc2nn1CC | -8 | 5 | i | -9 | -3 | -5 | -2 | -2
Cc1ccc(C(=O)NCC(=O)NCC(c2cccs2)N2CCOCC2)cc1C (stereo unspecified) | -2 | nt | i | -2 | -3 | nt | -3 | 4

Structures listed so far containing a cyano group, in the order listed:
SMILES | CSC inhib | PABP FP inh | Rce1 inh | UUG fidelity | HIV Env fusion | eIF4H FP inh | MT1-MMP act inh | MT1-MMP act inh RFP | others
CCN(CC)CCNc1nc(-c2ccco2)c2c(c1C#N)CC(C)(C)OC2 | 9 | -8 | i | -13 | -1 | -5 | -4 | 0
Cc1ccccc1C1C(C#N)=C2N=C(N)c3c(sc4c3CCCCC4)N2C2=C1C(=O)CC(C)(C)C2 (stereo unspecified) | 11 | 87 | i | -20 | -9 | 114* | -232 | 3 | eIF4H FP inh retest=73*;PABP FP inh retest=42
